EPAC1 ag val: human EPAC1 agonism, validation. Potency, µM, for inactives: max response, positive = active, most hits filed as activators. actives 1% (n = 16,000). EPAC1 Rap1b BODIPY-GDP exchange, fluorescence. O95398; active = well fitted activation curve with a large enough effect; inconclusive = small, poorly fitted or top-dose-only effect; inactive = no such curve, though single readings can be large or run the other way;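 also: nearly all actives have a fitted effect of over 70% in size; series mostly up to about 76 or 150 µM; scaled to a cAMP control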
Target sequence (O95398 whole entry, looked up): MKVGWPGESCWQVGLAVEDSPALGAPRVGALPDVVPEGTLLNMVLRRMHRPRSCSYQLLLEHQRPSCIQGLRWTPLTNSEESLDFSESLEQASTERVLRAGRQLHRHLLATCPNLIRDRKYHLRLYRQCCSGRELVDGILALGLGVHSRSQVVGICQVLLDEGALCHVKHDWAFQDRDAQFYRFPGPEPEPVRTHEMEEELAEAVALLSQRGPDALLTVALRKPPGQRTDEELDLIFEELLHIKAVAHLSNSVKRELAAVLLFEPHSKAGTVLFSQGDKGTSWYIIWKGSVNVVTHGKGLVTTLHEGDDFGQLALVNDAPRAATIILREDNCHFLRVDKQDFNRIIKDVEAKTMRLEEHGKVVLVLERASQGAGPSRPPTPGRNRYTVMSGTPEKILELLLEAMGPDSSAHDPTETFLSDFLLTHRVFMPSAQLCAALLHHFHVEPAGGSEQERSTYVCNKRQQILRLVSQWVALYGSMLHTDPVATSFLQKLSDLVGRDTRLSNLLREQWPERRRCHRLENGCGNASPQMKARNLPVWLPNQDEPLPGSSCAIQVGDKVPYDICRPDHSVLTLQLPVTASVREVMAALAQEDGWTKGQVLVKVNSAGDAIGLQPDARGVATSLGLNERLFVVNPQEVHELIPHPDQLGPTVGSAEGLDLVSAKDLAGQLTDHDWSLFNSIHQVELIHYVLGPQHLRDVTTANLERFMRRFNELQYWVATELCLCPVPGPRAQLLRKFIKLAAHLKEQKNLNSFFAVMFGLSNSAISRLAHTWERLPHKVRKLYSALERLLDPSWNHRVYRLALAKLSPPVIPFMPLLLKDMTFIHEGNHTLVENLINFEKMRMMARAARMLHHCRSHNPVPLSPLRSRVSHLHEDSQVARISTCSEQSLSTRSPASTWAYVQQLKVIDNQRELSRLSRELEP
* marks the source's active call; other numbers are inactive results; u = inconclusive; & = joins results of further samples; [ ] = another dose, or the depositor's remark. % is scaled to controls: 0 for no effect and ±100 for the full control effect; potency is read from the fitted curve at half-maximal effect. A portion of the library (hit frequency here may not be typical).

EPAC1 ag val,Structure
-12%&6%,NC(=O)CCCCn1ccc(NC(N)=NCC(F)(F)F)n1
-31%[inhibitor],C=C[C@@H](C1=CC(=O)C(OC)=C(OC)C1=O)c1ccccc1
21%,CCCc1c2oc(C(=O)O)cc(=O)c2cc2c(=O)cc(C(=O)O)n(CC)c12
-17%,CN1C(=O)CC(CC(=O)N2CCCCC2CCO)(c2cccc(F)c2)C1=O (configuration not stated)
-3%,Cn1c(=O)c2c(ncn2CCOC(=O)C(C)(C)Oc2ccc(Cl)cc2)n(C)c1=O
u,COc1cc2cc3c4c(cc(OC)c(OC)c4c2cc1OC)CCN3C
14%,O=c1c(-c2ccccc2)nc2cnc(N3CCOCC3)nc2n1CCc1ccccc1
3%,COC(=O)C[C@H]1c2cc(F)ccc2S(=O)(=O)N1c1ccccc1
-2%,C=CC[C@H](N)C(=O)O
-23%,COc1cccc(-c2cncnc2Nc2ccccc2)c1
-61%[inhibitor],CCCCCCCC/C=C/CCCCCCCCOP(=O)([O-])OCC[N+](C)(C)C
u,Cc1cc(=O)n(-c2ccccc2)n1C
-2%,C=C[C@]1(C)C[C@@H](OC(=O)CO)[C@]2(C)[C@H](C)CC[C@]3(CCC(=O)[C@H]32)[C@@H](C)[C@@H]1O
-12%,COc1ccc2c(c1)CCC1[C@@H]2CCC2(C)[C@@H](NCCCCCCN3C(=O)C=CC3=O)CC[C@@H]12 (some centres not stated)
u,C=C[C@@H]1c2c(F)cccc2N(S(=O)(=O)c2ccc(C)cc2)[C@H](c2ccc(C(=O)OC)cc2)C1(C#N)C#N
-20%,CC(C)[C@@H]1NC(=O)[C@H](Cc2ccccc2)NC(=O)[C@@H](CC(=O)O)NC(=O)CNC(=O)[C@H](CCCNC(=N)N)NC1=O
-27%,c1cncc(-c2ccc3ncnc(NCCN4CCOCC4)c3c2)c1
-15%,O=C(c1cc(C(F)(F)F)cc(C(F)(F)F)c1)N1CCC[C@@]2(CCN(c3ccncc3)C2)C1
-8%,CC(C)(C)NC[C@H](O)c1ccc(O)c(CO)c1
-2%&12%,COc1ccc(-c2coc3cc(O)cc(O)c3c2=O)cc1
-10%,Cc1ccc(S(=O)(=O)O)cc1C
-5%,O=C(CCc1c[nH]c2ccccc12)N1CCC(n2c(C3CCCO3)nc3cc(C(F)(F)F)ccc32)CC1 (configuration not stated)
-87%[inhibitor],O=c1c(-c2ccc(F)cc2)nc2cnc(N3CCOCC3)nc2n1-c1ccccc1
-19%,CN(C)c1ccc(-c2ccc3ncnc(NC4CC4)c3c2)cc1
-92%[inhibitor],CCCCCCCCCCCCCCCCCC(=O)OC[C@@H](O)[C@H]1OC[C@H](O)[C@H]1O
u,Cc1cccc2c(C(O)c3cn(C)c4ccccc34)c[nH]c12 (configuration not stated)
-1%,C[N+]1(C)[C@@H]2CC(OC(=O)C(O)(c3cccs3)c3cccs3)C[C@H]1[C@@H]1O[C@@H]12 (some centres not stated)
u,CC(=O)Oc1ccc2c(c1OC(C)=O)OCC1(O)Cc3c(cc(OC(C)=O)c(OC(C)=O)c3OC(C)=O)C21 (configuration not stated)
4%,COc1cc(OC)c(C(=O)CCCN2CCCC2)c(OC)c1
-41%[inhibitor],COCC(=O)N1CCC2(CC1)CCN(c1cccc(-c3ccccc3)c1)CC2
-9%,Cc1cccc(CNC(=O)c2cnn(-c3nccc(-c4cccs4)n3)c2C(C)C)n1
u,C=C[C@@H](C)N(Cc1ccc(OC)cc1)S(=O)(=O)N(Cc1ccccc1)[C@H](C=C)C(C)C
-3%,CC(N)C12CC3CC(CC(C3)C1)C2 (configuration not stated)
1%,NS(=O)(=O)c1cc2c(cc1Cl)NC(Cc1ccccc1)NS2(=O)=O (configuration not stated)
u,CN(Cc1ccco1)c1ncncc1-c1ccccc1Cl
-46%[inhibitor],Cc1cc2ccccc2cn1
-51%[inhibitor],CC(=O)N1CCC2(CCCN(Cc3nccs3)C2)CC1
6%,COc1ccc2oc(-c3ccccc3)c(OC)c(=O)c2c1
-17%,COc1ccc(-c2cc(=O)c3ccccc3o2)cc1
-26%,COc1cc2c(cc1OC)C1(O)C(=O)c3ccc(O)c(C(=O)O)c3OC1CO2 (configuration not stated)

Brought forward from above: 3 compounds; new compounds follow.
EPAC1 ag val,Structure
6%,COc1ccc2oc(-c3ccccc3)c(OC)c(=O)c2c1
-17%,COc1ccc(-c2cc(=O)c3ccccc3o2)cc1
-26%,COc1cc2c(cc1OC)C1(O)C(=O)c3ccc(O)c(C(=O)O)c3OC1CO2 (configuration not stated)
-29%,O=C(c1csnn1)N1CCC2(CCN(Cc3ccccc3)CC2)CC1
-7%,COc1ccc(CN(C)CCn2cc(C(=O)N3CCSCC3)nn2)cc1C
-1%,CC1CN(CC(=O)N2CCN(Cc3nccn3C)CC2)Cc2cc(Cl)ccc2O1 (configuration not stated)
-71%[inhibitor],Cc1c(Cl)cccc1Nc1ccccc1C(=O)O
-11%,NC(N)=N[C@@H](CCC(=O)O)C(=O)O
-10%,CCOC(=O)C[C@H]1c2cc(F)ccc2S(=O)(=O)N1Cc1cc(OC)c(OC)c(OC)c1
-2%,CCCCCCCCCCCCCCCCCCN(CCCCCCCCCCCCCCCCCC)c1ccc(C=O)cc1
0%,O=c1[nH]c(=O)n([C@H]2C[C@H](O)[C@@H](CO)O2)cc1I
-12%,O=C(NCCc1ccccn1)C1CC12CCN(C(=O)c1cccc(C(F)(F)F)c1)CC2 (configuration not stated)
29%,CC(=O)Nc1ccc(OC(=O)c2ccccc2O)cc1
u,Cn1c(=O)c(-c2ccccc2)nc2cnc(N3CCNCC3)nc21
-5%&-11%,CC(C)[C@H](O)CC[C@@H](C)C1CC[C@H]2C3CC=C4C[C@@H](O)CC[C@]4(C)C3CC[C@]12C (some centres not stated)
u,CC(=O)NO
-44%[inhibitor],COCCNc1nc(-c2ccc(C(=O)N(C)C)cc2)nc2ccccc12
-4%,O=C(O)CC/C=C\C[C@@H]1CO[C@H](c2ccccc2Cl)O[C@@H]1c1ccccc1O
6%,COCc1c(C(=O)N2CCN(C3CCCC3)CC2)cnn1-c1nccc(-c2cc(C)sc2C)n1
u,COC(=O)c1ccccc1-c1cc(C)cc2c1OC(CNC(=O)c1occc1C)C2 (configuration not stated)
-94%[inhibitor],COc1ccccc1CN1CC2(CCN(C(=O)c3cc(C(F)(F)F)cc(C(F)(F)F)c3)CC2)C1
34%,COc1ccc(CNc2nc(-c3ccc(C(=O)N(C)C)cc3)nc3ccccc23)c(OC)c1
-82%[inhibitor],CCCCC[C@H]1CN(Cc2ccccc2)C(=O)[C@@H]1CC(=O)NCc1ccc(OC)cc1
9%,COS(C)(=O)=O
11%,CC(C)CCCCCCc1ccc(O)cc1
-18%,OCCN1C[C@H](O)[C@@H](O)[C@H](O)[C@H]1CO
-15%,O=C1C[C@H](c2ccccc2)Oc2cc(O)cc(O)c21
-8%,Cc1ccc2cccc(O)c2n1
-18%&-3%,C[C@H](NC[C@H](O)CP(=O)(O)Cc1ccccc1)c1ccc(Cl)c(Cl)c1
-61%[inhibitor],COc1ccc2[nH]cc(CCNc3ncncc3-c3ccc(N(C)C)cc3)c2c1
-9%,COc1ccc(CN2[C@@H](CC(C)=O)c3cc(C(F)(F)F)ccc3S2(=O)=O)cc1
9%,O=C(c1cccc(F)c1)N1CCC2(CCCN(c3ccccn3)C2)CC1
13%,Cc1cccc2cc(CNCCCN3CCCC3=O)c(N3CCN4CCCC4C3)nc12 (configuration not stated)
-7%,CCOC(=O)C1=C(C)NC(c2ccccc2)=C(C(=O)OCc2ccc([N+](=O)[O-])cc2)[C@@H]1C#Cc1ccccc1
17%,COC(=O)C[C@H]1c2cc(F)ccc2S(=O)(=O)N1Cc1ccccc1
11%,Nc1ccc(N2C(=O)c3ccccc3C2=O)c(Cl)c1
19%,CC(=O)OC1CC(OC(C)=O)[C@]2(C)C(CC(=O)[C@]3(C)C2CC[C@@]2(C)C(C(=O)O)OC(=O)C4OC423)C1(C)C (some centres not stated)
2%,c1cncc(OC2CCN(Cc3ccc4c(c3)CN(Cc3ccc5c(c3)CCO5)CCO4)CC2)c1
-87%[inhibitor],Cc1c(O)cccc1C(=O)N[C@@H](CSc1ccccc1)[C@H](O)CN1C[C@H]2CCCC[C@H]2C[C@H]1C(=O)NC(C)(C)C
-7%,FC(F)(F)c1ccccc1-c1nccc(N2CCNCC2)n1
-8%,CCC1CN(CCNC(=O)c2ccccc2-n2cccn2)Cc2cc(OC)ccc2O1 (configuration not stated)
-41%[inhibitor],O=C(c1cccc(F)c1)N1CCC[C@@]2(CCN(c3ncccn3)C2)C1
3%,CC[C@@H]1OC(=O)[C@@H](C)[C@H](O[C@H]2C[C@@](C)(OC)[C@@H](O)[C@H](C)O2)C(C)[C@H](O[C@H]2O[C@@H](C)C[C@@H](N(C)C)[C@@H]2O)[C@@](C)(O)C[C@H](C)C(=O)[C@@H](C)[C@H](O)[C@@]1(C)O (some centres not stated)
u,O=Cc1cccc(C=O)c1
4%&-14%,CC(C)(CO)Cc1cc(C(C)(C)C)c(O)c(C(C)(C)C)c1
-2%,COc1ccccc1CC(Cc1nc2ccccc2[nH]1)c1nc2ccccc2[nH]1 (configuration not stated)
0%,Cc1c(C(=O)NCCCc2ccncc2)cnn1-c1nccc(-c2ccccc2F)n1
-58%&-19%[inhibitor],CCCCCCCCCCC/C=C\C(C)(C)/C=C\CCCC(=O)O
-35%[inhibitor],CN1CCC2(CC1)CCN(C(=O)c1ccncc1)CC2
18%,N#C/C(=C\c1ccc(O)c(O)c1)C(=O)OCCc1cccs1
12%,COC1[C@H](OC(N)=O)C(O)[C@H](Oc2ccc3c(O)c(NC(=O)c4ccc(O)c(CC=C(C)C)c4)c(=O)oc3c2C)OC1(C)C (some centres not stated)
-5%&-11%,CCCCOc1ccc(C(=O)CCN2CCCCC2)cc1
-7%,CC(=O)Nc1ccc(SC[C@H](Cc2ccccc2)N2CC[C@@H](C)CCC2=O)cc1
-26%,c1ccc(CNc2cc(-c3cccnc3)ncn2)cc1
-3%,Cc1ncc2c(c1CNS(=O)(=O)N(C)C)CCN(C(=O)/C=C/c1ccccc1F)C2
6%,Cc1ccnc2ccc(N)cc12
-31%[inhibitor],Cn1cccc1C(=O)N1CCC2(CCN(Cc3ccncc3)CC2)CC1
3%,COc1cccc(-c2ccnc(-n3ncc(C(=O)NCC4(N5CCCCC5)CCCC4)c3C)n2)c1
15%,CC[C@]1(O)C[C@@H]2CN(CCc3c([nH]c4ccccc34)[C@](C(=O)OC)(c3cc4c(cc3OC)N(C=O)[C@H]3[C@@](O)(C(=O)OC)[C@H](C(=O)OC)[C@@]5(CC)C=CCN6CC[C@]43[C@H]65)C2)C1
1%,CC(=O)c1ccccc1-c1ccc2c(c1)CC(CNC(=O)C[C@@H]1C[C@@H](C)NC(=S)N1)O2 (some centres not stated)
-11%,CC/C=C\C/C=C\C/C=C\CCCCCCCCCCCC(=O)O
-5%,OCC(O)C(O)[C@H](O[C@H]1OC(CO)C(O)C(O)C1O)[C@H](O)CO (some centres not stated)
112µM*,Cn1cc(-c2nc3cnc(N4CCOCC4)nc3n(CCC#N)c2=O)c2ccccc21

The results go on.
EPAC1 ag val,Structure
6%,Cc1cccc2c(Nc3ccc4c(c3)OCO4)nc(CN3CCC(N4CCCCC4)CC3)nc12
-14%&-33%&-5%&13%,Cn1cnc2c1c(=O)[nH]c(=O)n2C
-10%,Clc1ccccc1-c1cncnc1NCc1cccs1
-30%[inhibitor],CNc1ncnc2ccc(-c3cccc(OC)c3)cc12
2%,COc1cc2nc(N3CCCC(O)C3)c(CNCc3ccccc3F)cc2c(OC)c1OC (configuration not stated)
-1%,COc1ccc(O)c(CN2CCOc3c(cc(-c4cccc(OC)n4)cc3OC)C2)c1
-8%,COCc1c(C(=O)N2CC3CCC2C3)cnn1-c1nccc(-c2ccccc2OC)n1 (configuration not stated)
12%,CCCS(=O)(=O)NCc1c(C)ncc2c1CCN(C(=O)c1c(F)ccc(F)c1F)C2
-1%,O=c1c(-c2cc(F)cc(F)c2)nc2cnc(N3CCOCC3)nc2n1CCc1ccccc1
-43%[inhibitor],CS(=O)(=O)N1CCC[C@@]2(CCN(c3ccccc3)C2)C1
-11%,COc1cc(C2=N/C(=C\c3ccccc3)C(=O)O2)cc(OC)c1OC

Entries listed so far that contain a carbonyl joined to an NH by a bond outside any ring, in the order listed:
EPAC1 ag val,Structure
-12%&6%,NC(=O)CCCCn1ccc(NC(N)=NCC(F)(F)F)n1
-9%,Cc1cccc(CNC(=O)c2cnn(-c3nccc(-c4cccs4)n3)c2C(C)C)n1
-12%,O=C(NCCc1ccccn1)C1CC12CCN(C(=O)c1cccc(C(F)(F)F)c1)CC2 (configuration not stated)
29%,CC(=O)Nc1ccc(OC(=O)c2ccccc2O)cc1
u,CC(=O)NO
u,COC(=O)c1ccccc1-c1cc(C)cc2c1OC(CNC(=O)c1occc1C)C2 (configuration not stated)
-82%[inhibitor],CCCCC[C@H]1CN(Cc2ccccc2)C(=O)[C@@H]1CC(=O)NCc1ccc(OC)cc1
-87%[inhibitor],Cc1c(O)cccc1C(=O)N[C@@H](CSc1ccccc1)[C@H](O)CN1C[C@H]2CCCC[C@H]2C[C@H]1C(=O)NC(C)(C)C
-8%,CCC1CN(CCNC(=O)c2ccccc2-n2cccn2)Cc2cc(OC)ccc2O1 (configuration not stated)
0%,Cc1c(C(=O)NCCCc2ccncc2)cnn1-c1nccc(-c2ccccc2F)n1
12%,COC1[C@H](OC(N)=O)C(O)[C@H](Oc2ccc3c(O)c(NC(=O)c4ccc(O)c(CC=C(C)C)c4)c(=O)oc3c2C)OC1(C)C (some centres not stated)
-7%,CC(=O)Nc1ccc(SC[C@H](Cc2ccccc2)N2CC[C@@H](C)CCC2=O)cc1
3%,COc1cccc(-c2ccnc(-n3ncc(C(=O)NCC4(N5CCCCC5)CCCC4)c3C)n2)c1
1%,CC(=O)c1ccccc1-c1ccc2c(c1)CC(CNC(=O)C[C@@H]1C[C@@H](C)NC(=S)N1)O2 (some centres not stated)

High-throughput results deposited in PubChem BioAssay by National Center for Advancing Translational Sciences (NCATS).
